# Screening data from PubChem.
# NPYLR7 agonist: mosquito NPYLR7 agonism | HEK293T NPYLR7/Galpha15, GCaMP6s calcium fluorescence | activation, % at 10 µM | 270,000 tested, 0.15% active; in the data active = activation above about 40%;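 note: 0% = vehicle and 100% = reference agonist at the receptor; some compounds past the cut are filed as inactive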
# NPYLR7 agonist max-min: recorded beside NPYLR7 agonist, whose call it bears; activation, %; measured here: Max-Min RFU normalised activation; some inactives read as strong as hits;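 span of the calcium signal over five minutes; 0% = vehicle and 100% = native peptide agonist; compound fluorescence can raise it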
# Starred values were filed as active, the others as inactive.
# Values in the order: NPYLR7 agonist	NPYLR7 agonist max-min
1) COc1ccc(-c2cc(NC=O)c3ncc(-c4cccc(OC)c4)n3c2)cc1
 : 1	-5
2) Oc1cccc(C=Nn2c(-c3ccc(OC(F)F)cc3)n[nH]c2=S)c1
 : 4	8
3) COc1ccc(COC(=O)C2=C(C)NC(=O)NC2c2ccccc2F)cc1 (configuration not stated)
 : -1	-5
4) Cc1ccc2c(c1)c(Cn1cc(-c3sccc3C)nn1)nn2C
 : 30	18
5) Cn1c(=O)c2c(ncn2CC(=O)Nc2ccc(I)cc2)n(C)c1=O
 : 17	7
6) Cc1cc(S(=O)(=O)NCc2n[nH]c(Cc3ccccc3)n2)ccc1F
 : -1	0
7) Cc1sc2nc(CN3c4ccccc4CC3C)[nH]c(=O)c2c1C (configuration not stated)
 : -2	-2
8) O=C(Nc1cccc(C(F)(F)F)c1)N1CCc2nc(Cc3cccc(C(F)(F)F)c3)[nH]c(=O)c2C1
 : 1	12
9) CC(C)N1CCN(c2ccc(S(=O)(=O)N3CCOCC3)cn2)CC1
 : -10	-12
10) Cc1ccccc1C(=O)N1CCN(c2nccc(-c3ccc4c(c3)OCO4)n2)CC1
 : -8	-13
11) COc1ccc(/C=C2\Oc3c(ccc4c3CN(C3CC3)CO4)C2=O)c(OC)c1OC
 : 34	26
12) CN(CCC#N)C(=O)CSc1n[nH]c(C=Cc2cccs2)n1
 : -1	7
13) FC(F)(F)c1ccnc(-c2cccc3ccnn23)c1
 : 8	3
14) COc1ccc2c(c1)C1OCCC1C(c1ccco1)N2 (configuration not stated)
 : 7	3
15) CCCCCCCC(=O)Nc1c(-c2ccccc2)nc2ccccn12
 : -2	-2
16) CCCCCCC(=O)Nc1ccc2[nH]cc(CCN3CCN(c4cccc(C(F)(F)F)c4)CC3)c2c1
 : 5	2
17) COC(=O)CC1CNNC1=O (configuration not stated)
 : -2	-2
18) CN(Cc1n[nH]c2c1CCC2)c1nc(-c2ccncc2)nc2c1CNC2
 : 4	5
19) CCOC(=O)c1cnc2c(c1)c(C#N)cn2CC(=O)NCCOC
 : 1	-3
20) COc1ccc(S(=O)(=O)N(CC(=O)NC2CCCC2)c2ccc(C)cc2)cc1OC
 : 1	-2
21) N#Cc1ccc(C(=O)N(Cc2cccnc2)c2nc3cc4c(cc3s2)OCO4)cc1
 : -9	-2
22) COc1ccc(OC)c(NC(=O)c2cc3cc(Br)ccc3oc2=O)c1
 : -12	-15
23) COc1ccc(-c2ccc(-n3cnnc3)nc2C)cn1
 : -3	-3
24) CCOc1ccc(NC(=O)N(CCCOC)CC(=O)N(CCc2ccc(OC)c(OC)c2)Cc2ccco2)cc1
 : -8	-5
25) CCC(CC)C(=O)NCc1nnc(SCc2cccc(OC)c2)n1-c1cc(Cl)ccc1C
 : 14	14
26) CN(Cc1cc(C(C)(C)C)n[nH]1)Cc1ccnc2ccccc12
 : 0	1
27) CONC(=O)C(C)SCc1nc2scc(-c3ccccc3)c2c(=O)[nH]1 (configuration not stated)
 : -7	-10
28) Cc1cccc(CSc2nnc(C(Cc3ccccc3)NC(=O)c3ccc(F)cc3)n2-c2ccc([N+](=O)[O-])cc2)c1 (configuration not stated)
 : 24	23
29) C=CCOCC(O)CN(CC(=O)N1CCc2sccc2C1COc1ccc(Cl)cc1)C1CC1 (configuration not stated)
 : 15	16
30) CC1=NC2=C(C(=O)CC(C)(C)C2)C(c2ccccc2C(F)(F)F)C1C#N (configuration not stated)
 : -7	-14

# Not a retest: an excerpt of the list.
# Values in the order: NPYLR7 agonist	NPYLR7 agonist max-min
1) COc1ccc(-c2cc(NC=O)c3ncc(-c4cccc(OC)c4)n3c2)cc1
 : 1	-5
2) Oc1cccc(C=Nn2c(-c3ccc(OC(F)F)cc3)n[nH]c2=S)c1
 : 4	8
3) COc1ccc(COC(=O)C2=C(C)NC(=O)NC2c2ccccc2F)cc1 (configuration not stated)
 : -1	-5
4) Cc1ccc2c(c1)c(Cn1cc(-c3sccc3C)nn1)nn2C
 : 30	18
5) Cn1c(=O)c2c(ncn2CC(=O)Nc2ccc(I)cc2)n(C)c1=O
 : 17	7
6) Cc1cc(S(=O)(=O)NCc2n[nH]c(Cc3ccccc3)n2)ccc1F
 : -1	0
7) Cc1sc2nc(CN3c4ccccc4CC3C)[nH]c(=O)c2c1C (configuration not stated)
 : -2	-2
8) O=C(Nc1cccc(C(F)(F)F)c1)N1CCc2nc(Cc3cccc(C(F)(F)F)c3)[nH]c(=O)c2C1
 : 1	12
9) CC(C)N1CCN(c2ccc(S(=O)(=O)N3CCOCC3)cn2)CC1
 : -10	-12
10) Cc1ccccc1C(=O)N1CCN(c2nccc(-c3ccc4c(c3)OCO4)n2)CC1
 : -8	-13
11) COc1ccc(/C=C2\Oc3c(ccc4c3CN(C3CC3)CO4)C2=O)c(OC)c1OC
 : 34	26
12) CN(CCC#N)C(=O)CSc1n[nH]c(C=Cc2cccs2)n1
 : -1	7
13) FC(F)(F)c1ccnc(-c2cccc3ccnn23)c1
 : 8	3
14) COc1ccc2c(c1)C1OCCC1C(c1ccco1)N2 (configuration not stated)
 : 7	3
15) CCCCCCCC(=O)Nc1c(-c2ccccc2)nc2ccccn12
 : -2	-2
16) CCCCCCC(=O)Nc1ccc2[nH]cc(CCN3CCN(c4cccc(C(F)(F)F)c4)CC3)c2c1
 : 5	2
17) COC(=O)CC1CNNC1=O (configuration not stated)
 : -2	-2
18) CN(Cc1n[nH]c2c1CCC2)c1nc(-c2ccncc2)nc2c1CNC2
 : 4	5
19) CCOC(=O)c1cnc2c(c1)c(C#N)cn2CC(=O)NCCOC
 : 1	-3
20) COc1ccc(S(=O)(=O)N(CC(=O)NC2CCCC2)c2ccc(C)cc2)cc1OC
 : 1	-2
21) N#Cc1ccc(C(=O)N(Cc2cccnc2)c2nc3cc4c(cc3s2)OCO4)cc1
 : -9	-2
22) COc1ccc(OC)c(NC(=O)c2cc3cc(Br)ccc3oc2=O)c1
 : -12	-15
23) COc1ccc(-c2ccc(-n3cnnc3)nc2C)cn1
 : -3	-3
24) CCOc1ccc(NC(=O)N(CCCOC)CC(=O)N(CCc2ccc(OC)c(OC)c2)Cc2ccco2)cc1
 : -8	-5
25) CCC(CC)C(=O)NCc1nnc(SCc2cccc(OC)c2)n1-c1cc(Cl)ccc1C
 : 14	14
26) CN(Cc1cc(C(C)(C)C)n[nH]1)Cc1ccnc2ccccc12
 : 0	1
27) CONC(=O)C(C)SCc1nc2scc(-c3ccccc3)c2c(=O)[nH]1 (configuration not stated)
 : -7	-10

# Other structures follow.
# Values in the order: NPYLR7 agonist	NPYLR7 agonist max-min
31) Cc1ccc(S(=O)(=O)NN2CC3(C)C4CCC3(C)C2(C(N)=O)C4)cc1 (configuration not stated)
 : -3	-7
32) CCN(CC)C(=O)Oc1ccc2c(ccn2Cc2cc(C)cc(C)c2)c1NC(=O)c1ccc(F)cc1F
 : 2	-1
33) COc1ccccc1N1CCN(C(=O)CN2CC3=C(C2=O)C(c2ccccc2C(F)(F)F)NC(=O)N3C)CC1 (configuration not stated)
 : 0	10
34) CCc1cccc(CC)c1N(COC)C(=O)Cn1c(C)nc2ccccc21
 : -2	0
35) COc1ccc(COc2ccc(Cl)cc2C(N)=O)cc1F
 : -1	-1
36) COC(=O)c1csc(CN(C(=O)c2ccccc2Br)C2CCCCC2)n1
 : 11	17
37) O=C(Oc1coc(CSc2ncccn2)cc1=O)c1ccc(-c2ccccc2)cc1
 : -9	0
38) CC1C(=O)N(c2ccc([N+](=O)[O-])cc2)CCN1C(=O)c1ccccc1Cl (configuration not stated)
 : 4	9
39) N#C/C(=C/c1ccc(N2CCCCCC2)o1)c1ccc(F)cc1
 : 88*	53*
40) CCOC(=O)[C@H]1C[C@@H]2O[C@H]1[C@H]1CN(Cc3ccco3)C[C@H]1[C@@H]2O
 : 7	10
41) CC(C)[C@@H]1CC[C@@H](C)C[C@@H]1P(=O)(c1ccccc1)c1ccccc1
 : -22	-23
42) Cn1c(=NN=Cc2ccccc2Br)sc2ccccc21
 : 8	16
43) CC1=NN(C(=O)c2ccccc2)C(O)(c2ccccc2)C1 (configuration not stated)
 : -9	-15
44) Cc1ccc(CNC(=O)c2csc(Nc3ccc(S(C)(=O)=O)cc3)n2)cc1
 : 9	2
45) Nc1nc(NCCc2ccccc2)nc(-c2cc(Cl)ccc2O)n1
 : -6	-7
46) CCc1cccc(CC)c1NC(=O)Cn1nc(-c2cccs2)c2sc(N3CCCC3)nc2c1=O
 : -3	-6
47) CC(C)c1noc(N2CCC3(CCOC3)C2)n1 (configuration not stated)
 : 14	10
48) CCC(C(=O)Nc1cc(C)ccc1C)n1c(C)cc(C)nc1=O (configuration not stated)
 : 2	3
49) CC(C)(C)c1ccc(C(C)(C)N)cc1
 : -1	16
50) Cc1ccc(-c2cc(C(F)(F)F)n3nc(C(=O)Nc4nc(C)cs4)cc3n2)cc1
 : 4	6
51) COc1ccc(N2CC(C(=O)NCCN3CCc4sccc4C3)CC2=O)cc1 (configuration not stated)
 : 11	10
52) COc1ccccc1OC1CN(C(=O)c2occc2C)C1
 : -8	-16
53) COc1ccc(NC(=O)CSc2nc3c(c(=O)n2-c2cc(C)cc(C)c2)SCC3)c(OC)c1
 : -5	-14
54) O=C(Cc1ccc(F)cc1)Nn1cnc2c(cnn2-c2ccc(F)cc2)c1=O
 : 8	7
55) Cc1cc(F)ccc1Oc1cc(N2CCN(C(=O)c3ccccc3Br)C(C)C2)ncn1 (configuration not stated)
 : 1	8
56) CN1CCN2CCN(Cc3ccc(-n4ccnc4)cc3)CC2C1 (configuration not stated)
 : 1	11
57) CCOc1ccc2nc3cc(N)ccc3c(N)c2c1
 : 72*	62*
58) C=CCN1CC(C)(C)CN(S(=O)(=O)c2ccc(C)cc2)CC1=O
 : 5	16
59) CNC(=O)c1cccc(-c2cc(C3(CNCCCOC)CC3)ccn2)c1
 : -6	-4
60) Cc1nn(CCc2nc(-c3ccccc3)cs2)c2[nH]c(=O)cc(C(F)(F)F)c12
 : 3	-2
61) Cc1ccc2c(CC(=O)NCCC3CN(C)CCO3)coc2c1 (configuration not stated)
 : 7	7
62) CCNC(=O)NC(=O)CN1CCOC(c2ccccc2Cl)C1 (configuration not stated)
 : 10	4
63) Clc1ccc(Nc2nccc3c2ncn3Cc2ccccc2)cc1
 : -6	-8
64) COc1ccc(CCn2c(-c3ccco3)nc3c(c(=O)c4ccccc4n3C)c2=O)cc1
 : -5	-4
65) O=C(NCC(c1ccco1)S(=O)(=O)c1ccc(Cl)cc1)Oc1ccccc1 (configuration not stated)
 : 9	4
66) CN(CC(=O)Nc1c(Cl)cccc1Cl)C(=O)CCc1ncc(-c2ccccc2Cl)o1
 : -6	-8
67) CN(C)c1ccc(/C=N\Nc2nc(N3CCOCC3)nc(N3CCOCC3)n2)cc1
 : 0	-8
68) Cc1ccccc1-c1ncc(CNCc2cccnc2-n2cncn2)s1
 : -6	-9
69) Cc1cc2nc(Nc3ccccc3)c3ccccc3n2n1
 : -3	-8
70) COCCn1c(=O)c2c(nc3n(-c4cc(C)ccc4C)c(C)c(C)n23)n(C)c1=O
 : 13	6
71) CCC(=O)N1CCN(c2ncnc3c2nnn3-c2ccc(F)cc2)CC1
 : -8	-14
72) CC12CCC(CN(C(=O)N3CCOCC3)C1)C2(C)C (configuration not stated)
 : 2	39
73) CCn1nnc2c(SCC(=O)N3CCN(c4ccccc4)CC3)ncnc21
 : 0	5
74) Cc1nc2sc(C)c(C)n2c(=O)c1NC(=O)C(C)Oc1ccc(Cl)cc1Cl (configuration not stated)
 : 10	3
75) CN1C(=O)c2ccc(-c3ccccc3)nc2NC1C(=O)N1CCN(c2ccccc2)CC1 (configuration not stated)
 : -10	-12
76) CCCc1nc(N2C[C@@H]3[C@H](C2)[C@H]2CC[C@@H]3O2)no1
 : 0	1
77) CC(C)C(OC(=O)CC1CCCC1)C(=O)NC(N)=O (configuration not stated)
 : 0	4
78) CS(=O)(=O)N1CCN=C1SCc1cccc([N+](=O)[O-])c1
 : 10	8
79) CCN(C(=O)Cn1c(C(F)(F)F)ccc(C(N)=O)c1=O)C1=CCCC1
 : 5	6
80) CN(Cc1cnn(C)c1)C(=O)C1(c2cccc(Cl)c2)CCCCC1
 : -1	-20
81) CCOc1cc(C#N)ccc1OS(=O)(=O)c1cccs1
 : 0	-5
82) Cc1cc(C)c(CNc2c(C#N)cnc3ccc(Cl)cc23)c(=O)[nH]1
 : 8	3
83) O=C(CSc1nncn1-c1ccccc1)NCCN1C(=O)CSC1=O
 : 14	7
84) O=C(O)c1cccc(N2C(=O)C3C(C2=O)C2C=CC3C23CC3)c1 (configuration not stated)
 : 0	-2
85) Cc1ccc(S(=O)(=O)NCc2ccco2)c(C)c1C
 : 2	5
86) Cc1cc(C)c(C2NC(=O)N(C)C3=C2C(=O)N(Cc2ccco2)C3)cc1C (configuration not stated)
 : 2	0
87) C=CCN(Cc1nccn1Cc1ccccc1C(F)(F)F)C(=O)c1ccc(F)cc1
 : -4	11
88) CC(=O)c1cccc(S(=O)(=O)Nc2ccc3scnc3c2)c1
 : 8	4
89) COC(=O)c1sc(S(=O)(=O)NC(CCSC)C(=O)O)c(C(=O)OC)c1C (configuration not stated)
 : 0	-2
90) CN(CC(=O)Nc1sc2c(c1C#N)CCC2)Cc1ccc(Cl)s1
 : 0	7

# From entry 63 as far as 64, as listed above:
# Values in the order: NPYLR7 agonist	NPYLR7 agonist max-min
63) Clc1ccc(Nc2nccc3c2ncn3Cc2ccccc2)cc1
 : -6	-8
64) COc1ccc(CCn2c(-c3ccco3)nc3c(c(=O)c4ccccc4n3C)c2=O)cc1
 : -5	-4

# A portion of the library; count on the stated rates, not on these rows.
